Screening data: PubChem, National Center for Advancing Translational Sciences (NCATS)
NPR1 antag = antagonists of human natriuretic peptide receptor Npr1. HEK293 hNpr1 GloSensor cGMP, ANP-stimulated luminescence. Potency, µM (top dose mostly 46.3 µM), without a hit: top-dose activity change, negative = inhibition, usual class: inhibitors. hit rate 1.6% among 76,000; active = well fitted inhibition curve with a large enough effect; inconclusive = small, poorly fitted or top-dose-only effect; inactive = no such curve, though single readings can be large or run the other way;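 further: nearly all actives have a fitted effect of over 60% in size; nearly all hits also lower the signal before the agonist is added; a reference antagonist and vehicle were the controls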
Target sequence (P16066 whole entry, looked up): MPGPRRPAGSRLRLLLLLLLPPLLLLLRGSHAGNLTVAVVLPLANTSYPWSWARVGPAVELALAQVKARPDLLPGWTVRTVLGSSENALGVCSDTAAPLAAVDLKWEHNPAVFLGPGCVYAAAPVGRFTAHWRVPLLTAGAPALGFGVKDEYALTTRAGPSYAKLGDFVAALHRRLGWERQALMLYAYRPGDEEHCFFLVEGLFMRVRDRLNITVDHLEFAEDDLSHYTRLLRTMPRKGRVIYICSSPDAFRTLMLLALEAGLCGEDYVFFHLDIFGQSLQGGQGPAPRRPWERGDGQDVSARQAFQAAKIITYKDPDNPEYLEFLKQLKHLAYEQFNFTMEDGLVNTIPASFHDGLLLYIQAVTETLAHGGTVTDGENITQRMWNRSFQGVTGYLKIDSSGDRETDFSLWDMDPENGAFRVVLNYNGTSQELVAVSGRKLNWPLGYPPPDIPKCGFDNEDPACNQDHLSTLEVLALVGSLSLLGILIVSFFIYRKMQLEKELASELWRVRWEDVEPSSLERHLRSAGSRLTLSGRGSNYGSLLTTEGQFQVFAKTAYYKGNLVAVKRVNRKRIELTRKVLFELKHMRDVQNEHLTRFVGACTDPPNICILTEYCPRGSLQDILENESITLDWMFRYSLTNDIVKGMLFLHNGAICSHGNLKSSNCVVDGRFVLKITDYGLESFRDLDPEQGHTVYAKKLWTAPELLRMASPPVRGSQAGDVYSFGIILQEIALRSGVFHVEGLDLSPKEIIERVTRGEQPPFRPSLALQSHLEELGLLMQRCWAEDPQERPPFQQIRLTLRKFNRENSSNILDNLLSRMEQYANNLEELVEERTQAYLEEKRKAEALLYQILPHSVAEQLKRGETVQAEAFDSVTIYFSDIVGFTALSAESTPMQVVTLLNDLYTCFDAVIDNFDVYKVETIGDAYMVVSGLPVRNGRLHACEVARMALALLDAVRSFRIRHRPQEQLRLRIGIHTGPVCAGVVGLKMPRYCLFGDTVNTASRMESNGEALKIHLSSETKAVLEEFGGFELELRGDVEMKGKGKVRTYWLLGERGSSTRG
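Compound pre-incubated 30 min at room temperature on GloSensor-loaded HEK293 cells stably carrying hNpr1 and the pGS-40F cGMP biosensor. Stimulation uses hNppA at 0.1 nM final; luminescence is taken at baseline and 20 min post-agonist.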
An asterisk follows results filed as active; ? = inconclusive; [ ] = another dose, or the depositor's remark. On the % scale 0 is the no-effect control and ±100 the full control effect; potency means the concentration at half of the fitted maximal effect. The list is partial, so the mix of outcomes need not match the whole.

structure,NPR1 antag
COc1cc(CNc2nc(-c3c(C)noc3C)cc3cc(CN(C)C)oc23)cc(OC)c1,-2%[70.6 µM]
Cc1sc2ccn(CC(C)C)c(=O)c2c1C(=O)O,4%
O=C(NCc1ccncc1)C1CN(C(=O)COc2ccc(Cl)cc2)CC12CCOCC2 (stereo unspecified),5%
COc1ccc(CNC(=O)[C@@H]2CCC[C@@H](NC(=O)C3CC3)CN(C)C(=O)C2)cc1,1%[70.6 µM]
O=C(c1nc(-c2cc(Cl)cc(Cl)c2)c2ccccn12)N1CCCC1,5%
CC(=O)Nc1ccc(S(=O)(=O)NC[C@@H]2C=C(C)[C@H](CC(=O)NC3CCCC3)C[C@H]2C(C)C)cc1,-1%
COc1cccc(CN2Cc3nc(-c4ccncc4)ccc3OCC2=O)c1,-29%[70.6 µM]
O=C(CC[C@@H]1CNC(=O)[C@@H]2C[C@H](NC(=O)c3ccc(F)c(Cl)c3)CN12)NCc1ccccc1,1%
O=C(CCc1ccccc1)NCC(=O)N1CCN(c2ccccn2)CC1,7%
C#CCNC[C@@H]1C=C(C)[C@H](Cc2nnc(-c3ccccc3F)o2)C[C@H]1C(C)C,-2%[70.6 µM]
O=C(c1ccccc1)N1CCC2(C1)C(=O)N(Cc1ccccc1)c1ccccc12 (stereo unspecified),-27%
CCOC(=O)C1=C(C)N=C2SC=C(CC(=O)NC(C)CC)N2C1c1cccc([N+](=O)[O-])c1 (stereo unspecified),-27%
CCc1noc([C@@H]2CC(F)(F)CN2C(=O)CCn2cc(C)cn2)n1,1%
COc1cccc(C(=O)NCCC2CCN(C(=O)Nc3cccc(C)c3)CC2)c1,2%
Cc1ccc(CNC(=O)c2cc3n(n2)CC(c2ccc(Cl)cc2)OC3)cc1 (stereo unspecified),?
CCOc1cc(=O)n2c(c1C(=O)Nc1cccc(F)c1C)CCCC2,6%
OC1(c2nc(Nc3ccc(OC(F)(F)F)cc3)n[nH]2)CCOCC1,-4%[70.6 µM]
COc1ccc(Cn2c(C3CCN(C(=O)c4ccc(C)cc4C)CC3)n[nH]c2=O)cc1,0%
Cc1ccc(CNc2ncncc2-c2nc(-c3ccccc3)no2)cc1,-7%
CCCN(CC1CCOC1)S(=O)(=O)c1ccc(F)cc1F (stereo unspecified),3%

The list goes on.
structure,NPR1 antag
COCCN(Cc1ccsc1)Cc1cn[nH]c1-c1ccc(F)cc1,5%
O=C1CCN(S(=O)(=O)c2ccccc2)CCCC(C(=O)NCCc2ccccn2)CCN1 (stereo unspecified),6%
Cc1sc2nc(CCN)nc(N(C)CCCCN3CCOCC3)c2c1C,3%
COC1CCC12CCN(C(=O)c1cnc(C)cn1)CC2 (stereo unspecified),4%
Fc1ccccc1OCCC1CCNC1 (stereo unspecified),3%
COc1cccc(CC(=O)N[C@H](C)c2onc(C)c2C(=O)O)c1,-2%[70.6 µM]
Cc1ccc(NC(=O)N2CCCC2c2nncn2C2CCCC2)cc1F (stereo unspecified),3%
CN1C[C@H](O)C[C@H]1c1nnc2n1CCN(S(=O)(=O)c1ccc(F)cc1)CC2,-4%
O=C(Nc1ccc(Cl)cc1)c1ccc(Cn2ccn3nc4c(c3c2=O)CCCC4)cc1,-3%
COc1ccc(-c2cc(C[C@@H]3CC[C@@H]4OC(=O)NC[C@H]4O3)no2)cc1,3%[70.6 µM]
CN(C(=O)CN1C(=O)C(c2ccccc2)=NC12CCCC2)c1ccccc1,-6%
CN(CCO)C[C@@H]1CN(C(=O)c2cnc3sccn3c2=O)C[C@@H]1CO,3%
COC(=O)[C@@H]1Cc2ncn(Cc3ccccc3)c2CN1C(=O)c1cccs1,1%[70.6 µM]
CCC1=C(C(=O)OC)C(c2ccccc2C)N2C(CC(=O)NC3CC3)=CSC2=N1 (stereo unspecified),-21%
CC(C)NC[C@H]1O[C@@H](CO)[C@@H](O)[C@H]1N1CCN(c2ncccn2)CC1,0%
CNC(=O)c1cc[nH]c1C1CCCN(C(=O)Cc2ccsc2)C1 (stereo unspecified),5%
COc1ccccc1CN1CCc2ncc(C(=O)Nc3ccccc3)n2CC1,-1%[70.6 µM]
COc1ccc(-c2cc(N3CCC(NC(=O)c4ccccn4)C3)n[nH]2)cc1 (stereo unspecified),-3%
O=C(c1ccccc1F)N1CCCC2(CNc3ccccc3[S+](=O)([O-])N2)C1 (stereo unspecified),-15%
O=C(CC1CCN(C(=O)CCC2CCCCC2)C1)NCc1ccccc1 (stereo unspecified),-7%

Following part:
structure,NPR1 antag
CC(C)C(Nc1nc(-c2ccncc2)nc2c1cnn2C)c1nccn1C (stereo unspecified),5%
Cc1cccc(NC(=O)NCC2Cn3cccc3CN2C)c1 (stereo unspecified),-11%
Oc1ccc(CN2CCCCC2c2nc(CCOCC3CC3)no2)cc1 (stereo unspecified),0%
CC(C)(N)C(=O)N1CCC(n2nccc2NC(=O)c2ccccc2)CC1,1%
O=C(CCc1cc2n(n1)CCN(C(=O)c1ccc[nH]1)C2)N1CCOCC1,-2%
CS(=O)(=O)Nc1ccc(C2(C(=O)NCc3ccc(F)c(Cl)c3)CCCCC2)cc1,-15%
CCS(=O)(=O)Nc1ccc(C2(C(=O)NCc3cccs3)CCCCC2)cc1,-5%
CC(C)Cc1cc(C[C@@H]2C[C@H](NC(=O)C3CCCC3)C2(C)C)no1,?
COCCNc1ccc2nnc(-c3ccc(C)cn3)n2n1,3%[70.6 µM]
O=C(N[C@@H]1CCC[C@@H]1C(=O)NCCc1ccccc1)c1ccncc1,-3%
COC[C@@H]1CN(c2cnccn2)C[C@H]1C(=O)NCc1ccccc1F,-20%
O=C(NC[C@H]1Cn2c(-c3ccc(Cl)cc3)cnc2CO1)c1cccnc1,-4%[70.6 µM]
CCOc1cccc(CNC(=O)C2CCCCC(=O)N2Cc2cccc(OC)c2)c1 (stereo unspecified),-10%
O=C(c1ccccc1)N1CCC2(C1)C(=NC1CCCC1)NC(=O)N2c1cccnc1 (stereo unspecified),0%
CN(CC1CCOCC1)C(=O)Nc1cc(F)c(F)c(F)c1,-2%
Cc1cnc(C(=O)NC2C[C@H]3CC[C@@H](C2)N3C(=O)c2cnccc2C)cn1 (stereo partly specified),0%
N[C@@H]1CN(c2ncccn2)C[C@H]1CO,-1%
Cc1ccc(-c2ccc3nnc(CNC(=O)c4ccc(N(C)C)cc4)n3n2)cc1C,9%
Cc1ccc(CN2CCC3(CC2)CN(C2CCC2)CC3CO)o1 (stereo unspecified),-1%
O=S(=O)(C1CC1)N1CCC(Cc2noc(-c3ccccc3)n2)C1 (stereo unspecified),-21%

CC(C)CC(=O)NCCc1noc(C2CC2)n1
- NPR1 antag: 6%

COc1cc(NC(=O)NC[C@H]2O[C@@H](CO)[C@@H](O)[C@@H]2N(C)Cc2ccccc2)cc(OC)c1
- NPR1 antag: 0%

COc1cccc(N2CCN(C(=O)CCC[C@H]3NC[C@@H]4C[C@H]3CN(Cc3ccccc3)C4)CC2)c1
- NPR1 antag: -1%

CCn1nc(CC(C)C)cc1C(=O)N1CCN(c2nc(C)cc(C)n2)CC1
- NPR1 antag: 2%

O=C(CN1C(=O)NC(c2ccc(Cl)cc2)C2=C1COC2=O)Nc1ccc2c(c1)CCC2 (stereo unspecified)
- NPR1 antag: -29%

O=C([C@H]1C[C@H](Oc2ccccc2)CN1Cc1ccc2[nH]ccc2c1)N1CCOCC1
- NPR1 antag: 4%

CC(C)CNC(=O)C1Cn2cccc2C(=O)N1C (stereo unspecified)
- NPR1 antag: 1%

CN1C[C@H](NC(=O)c2cnccn2)CCC[C@@H](C(=O)NCc2cc(F)cc(F)c2)CC1=O
- NPR1 antag: 0%

COc1cc2c(cc1Cn1cc(-c3nccn3C)nn1)CCC2
- NPR1 antag: 0%

COc1cccc(C(O)c2nc(C(=O)Nc3ccc4c(c3)OCC(=O)N4)c(C)o2)c1 (stereo unspecified)
- NPR1 antag: -3%[70.6 µM]

O=C(CC1CCCN(c2cnn(CC3CC3)c(=O)c2)C1)NC1CCCC1 (stereo unspecified)
- NPR1 antag: 0%

Cc1ccccc1C(=O)N(C)C1CCCc2ccccc21 (stereo unspecified)
- NPR1 antag: 4%[70.6 µM]

CCOC(=O)CCNC(=O)N1CCC(OC2CCN(Cc3ccccc3)CC2)CC1
- NPR1 antag: -2%

COCCCNC(=O)CN1CCCc2nc(C3CC3)ncc2C1=O
- NPR1 antag: -3%

O=C(CN1CC2CC(C1)[C@H]1CCCC(=O)N1C2)NCC1CC1 (stereo partly specified)
- NPR1 antag: -3%

COc1ccc(C2(C(=O)N3CCCC(C(=O)NCc4ccccc4)CCNC(=O)CC3)CC2)cc1 (stereo unspecified)
- NPR1 antag: -6%

CNC(=O)N1CCC(C2CCN(C(=O)C3CCCC3)C2)CC1 (stereo unspecified)
- NPR1 antag: 0%

CCn1cnnc1CC1CCCN(S(=O)(=O)c2ccccc2C)C1 (stereo unspecified)
- NPR1 antag: -7%

COc1ncccc1-c1cc(C(=O)NCc2c(C)cc(C)[nH]c2=O)c2c(c1)N(C(C)C)CCO2
- NPR1 antag: 1%

COc1ccc(C(=O)N2CCC3(CC2)C(OC)C(=O)N3CC2CC2)cc1F (stereo unspecified)
- NPR1 antag: -1%

Exported with the structure last: two of the compounds above.
NPR1 antag	mol
0%	CNC(=O)N1CCC(C2CCN(C(=O)C3CCCC3)C2)CC1 (stereo unspecified)
-7%	CCn1cnnc1CC1CCCN(S(=O)(=O)c2ccccc2C)C1 (stereo unspecified)

5 entries already listed, arranged by molecular weight, largest number first:
COc1ncccc1-c1cc(C(=O)NCc2c(C)cc(C)[nH]c2=O)c2c(c1)N(C(C)C)CCO2
- NPR1 antag: 1%

CCn1cnnc1CC1CCCN(S(=O)(=O)c2ccccc2C)C1 (stereo unspecified)
- NPR1 antag: -7%

COCCCNC(=O)CN1CCCc2nc(C3CC3)ncc2C1=O
- NPR1 antag: -3%

CNC(=O)N1CCC(C2CCN(C(=O)C3CCCC3)C2)CC1 (stereo unspecified)
- NPR1 antag: 0%

Cc1ccccc1C(=O)N(C)C1CCCc2ccccc21 (stereo unspecified)
- NPR1 antag: 4%[70.6 µM]

Other compounds
CC(C)CCN1CCNC(=O)C1CC(=O)N(C)Cc1nncn1C(C)C (stereo unspecified)
- NPR1 antag: 2%

O=C(c1nc2ccccc2[nH]1)N1CCNc2cnc(Nc3ccc(-n4ccnc4)cc3)nc2C1
- NPR1 antag: -13%

O=C(CCC[C@@H]1[C@H]2CCCN3CCC[C@@H](CN1C(=O)c1ccsc1)[C@@H]23)NCC1CC1
- NPR1 antag: 0%

COc1cccc(NC(=O)NC[C@H]2O[C@@H](CO)[C@@H](O)[C@H]2N2CCC(C)CC2)c1
- NPR1 antag: 3%[70.6 µM]

O=C(NCCN1CCCCC1)c1cc2cn(C3CCCC3)cc2s1
- NPR1 antag: 1%

CN(C)c1ccc(CN2CCn3nnc(CCC(=O)N4CCCC4)c3C2)cc1
- NPR1 antag: 0%

O=C(NC1CCCc2c1[nH]c1ccccc21)c1ccc(Br)o1 (stereo unspecified)
- NPR1 antag: -6%

Cc1ccc2c(c1)N1C(=O)OC[C@@H]1CCN(Cc1cccnc1)C2
- NPR1 antag: 2%[70.6 µM]

CCc1cc(=O)n(CC(=O)Nc2cccc(C(C)=O)c2)c(-c2cccc(F)c2)n1
- NPR1 antag: ?

O=C(NCCOc1ccccc1)c1nc2c(o1)CCN(Cc1c(F)cccc1F)CC2
- NPR1 antag: -1%[70.6 µM]

COc1cc(OC)cc(C(=O)N2CCCC(n3cc(-c4nc(C5CC5)no4)nn3)C2)c1 (stereo unspecified)
- NPR1 antag: -2%

COc1ccccc1C(=O)N1CCc2nn(Cc3ccccc3)c(=O)n2CC1
- NPR1 antag: -9%

CCc1nc2nccc(-c3ccc(OC)c(OC)c3)n2n1
- NPR1 antag: 6%

CCCCN1C(=O)c2ccccc2C(C(=O)NCCCOC)C12CCCCC2 (stereo unspecified)
- NPR1 antag: 5%

CCCN(CC1CCOC1)C(=O)Cc1cccc(Cl)c1 (stereo unspecified)
- NPR1 antag: -3%

COc1ccccc1NC(=O)N1CC(C(=O)NCC2CC2)CC(c2ccccc2)C1 (stereo unspecified)
- NPR1 antag: -18%

O=c1c2nc(Nc3cccc(F)c3)ccc2ncn1Cc1ccccc1
- NPR1 antag: -19%[70.6 µM]

CCC1=C(C(=O)OC)C(c2ccccc2OC)N2C(CC(=O)N3CC(C)OC(C)C3)=CSC2=N1 (stereo unspecified)
- NPR1 antag: -12%

CCc1noc(CC2CCOC3(CCN(S(=O)(=O)c4cccc(OC)c4)CC3)C2)n1 (stereo unspecified)
- NPR1 antag: 16µM*

CCn1ncc(CN2C[C@@H](COC)[C@H](c3ccncc3)C2)c1C
- NPR1 antag: 5%

O=c1cc2c(nn1Cc1cccc(Br)c1)CCCCC2
- NPR1 antag: 1%

CCOc1ccccc1CNC(=O)[C@H]1CCC[C@H]1NC(=O)c1ccc(OC)cc1
- NPR1 antag: 8%

O=C(c1nccc2ccccc12)N1C[C@@H](CO)[C@H](c2ccncc2)C1
- NPR1 antag: 4%

CN(Cc1cc(C2CC2)n[nH]1)c1nccc(-c2cccnc2)n1
- NPR1 antag: -3%

CCCCS(=O)(=O)N1C[C@@H](COC)[C@H](C(N)=O)C1
- NPR1 antag: -2%

Cc1nn(C)c(C)c1CCC(=O)N[C@@H]1CN(Cc2ccccc2)C[C@H]1CN(C)C
- NPR1 antag: 5%

CCN(CC)c1cc(CCC(=O)NCc2cc(F)ccc2F)ccn1
- NPR1 antag: 0%

CC[C@H]1CN(C(=O)C2CC2)CC[C@H]1CC(=O)NCc1ccccc1
- NPR1 antag: 6%[70.6 µM]

Clc1cc(NCC2CCCCC2)n2nccc2n1
- NPR1 antag: -20%[70.6 µM]

3 compounds picked at random from those above:
COC1CCC12CCN(C(=O)c1cnc(C)cn1)CC2 (stereo unspecified)
- NPR1 antag: 4%

COc1cc(CNc2nc(-c3c(C)noc3C)cc3cc(CN(C)C)oc23)cc(OC)c1
- NPR1 antag: -2%[70.6 µM]

CCc1nc2nccc(-c3ccc(OC)c(OC)c3)n2n1
- NPR1 antag: 6%
